Screening results from PubChem BioAssay.
Yeast UUG start: yeast start codon fidelity modulation | S. cerevisiae UUG-firefly luciferase reporter, luminescence/redox ratio | activity score, % at 18.7 µM | 350,000 compounds, 0.13% hits;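 active = replicate mean at a twofold rise or more, about +100% in these data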;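 note: firefly luciferase made from a UUG start codon reports start codon fidelity; reporter light over untreated wells divided by growth signal over untreated wells; some hits fall short of that in this replicate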
Env fusion inh: HIV envelope-mediated fusion inhibition; HeLa-JRFL Env/CEM21 cell fusion, luciferase; inhibition, % at 12.3 µM; 360,000 compounds, 1.1% hits;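 active = mean replicate inhibition score of at least 50 and every replicate individually at or above 50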;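 note: 0% = plate neutral controls and 100% = maraviroc near 300 nM; one replicate is shown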
* marks the source's active call; other numbers are inactive results; [ ] = remark or other dose.

Yeast UUG start	Env fusion inh	canonical_smiles
66.3*	2.5[16.7 µM]	CC(=O)N(C)C[C@@H]1Oc2cc(-c3cccc(C#N)c3)ccc2S(=O)(=O)N([C@H](C)CO)C[C@H]1C
6.0	3.7[16.7 µM]	C[C@@H]1CN([C@H](C)CO)C(=O)c2cc(NS(=O)(=O)c3ccc(F)cc3)ccc2O[C@@H](C)CCCCO[C@@H]1CN(C)Cc1ccccc1
-18.1	18.9[16.7 µM]	C[C@@H]1CN([C@H](C)CO)C(=O)c2cccc(NC(=O)c3nc4ccccc4s3)c2O[C@H]1CN(C)Cc1ccc(Oc2ccccc2)cc1
-8.5	14.5[16.7 µM]	CC(=O)N[C@H]1CC[C@@H](CC(=O)NCc2ccc(Cl)cc2)O[C@H]1CO
2.7	-25.7[16.7 µM]	C[C@@H]1CN([C@@H](C)CO)C(=O)c2cc(NC(=O)NC3CCCCC3)ccc2O[C@H]1CN(C)C(=O)Nc1cccc2ccccc12
28.8	-16.9[16.7 µM]	C[C@@H]1CN([C@@H](C)CO)C(=O)c2cc(NC(=O)Nc3ccc(C(F)(F)F)cc3)ccc2O[C@@H](C)CCCCO[C@H]1CN(C)C(=O)CCCN(C)C
-13.4	-0.1[16.7 µM]	O=C(C[C@H]1CC[C@H](NC(=O)Nc2cc(F)ccc2F)[C@@H](CO)O1)NCCCN1CCOCC1
8.0	2.1[16.7 µM]	C[C@@H]1CCCCO[C@@H](CN(C)C(=O)Cc2ccccc2)[C@H](C)CN([C@H](C)CO)C(=O)c2cc(NC(=O)CCC(F)(F)F)ccc2O1
-12.2	-20.3[16.7 µM]	COc1ccc(NC(=O)Nc2ccc3c(c2)C(=O)N([C@@H](C)CO)C[C@@H](C)[C@@H](CN(C)C(=O)Nc2cccc4ccccc24)OCCCC[C@@H](C)O3)cc1
19.2	-28.2[16.7 µM]	C[C@@H]1CCCCO[C@H](CN(C)C(=O)NC2CCCCC2)[C@H](C)CN([C@H](C)CO)C(=O)c2cc(NS(=O)(=O)c3cccs3)ccc2O1
-4.7	8.8[16.7 µM]	CN(C)C(=O)C[C@@H]1C[C@@H]2c3cc(NS(=O)(=O)c4ccc(F)cc4)ccc3O[C@@H]2[C@H](CO)O1
-5.3	-6.5[16.7 µM]	O=C(C[C@@H]1C[C@H]2c3cc(NC(=O)Nc4ccccc4)ccc3O[C@H]2[C@@H](CO)O1)NCc1ccccn1
5.2	22.2[16.7 µM]	C[C@@H]1CN([C@@H](C)CO)C(=O)Cc2cc(NS(=O)(=O)c3cccs3)ccc2O[C@@H]1CN(C)C(=O)Nc1cccc2ccccc12
9.0	-14.2[16.7 µM]	CCCNC(=O)N(C)C[C@H]1Oc2cc(-c3ccccc3F)ccc2S(=O)(=O)N([C@H](C)CO)C[C@H]1C
-0.4	8.8[16.7 µM]	C[C@@H]1CN([C@H](C)CO)C(=O)Cc2cc(NC(=O)C3CCCCC3)ccc2O[C@@H]1CN(C)CC1CC1
-7.7	3.8[16.7 µM]	CCNC(=O)C[C@H]1CC[C@@H]2[C@H](COC[C@@H](O)CN2C(=O)C2CCOCC2)O1
64.9	25.5[16.7 µM]	Cc1noc(C)c1S(=O)(=O)N(C)C[C@@H]1Oc2ccc(NC(=O)Nc3ccc(F)cc3)cc2CC(=O)N([C@H](C)CO)C[C@@H]1C
3.7	-8.4[16.7 µM]	CCCNC(=O)C[C@@H]1CC[C@@H]2[C@@H](COc3ccc(NC(=O)Cc4cccs4)cc3C(=O)N2C)O1
0.6	0.6[16.7 µM]	COc1ccc(NC(=O)N[C@H]2CC[C@H](CCNC(=O)c3ccccc3F)O[C@H]2CO)cc1
-6.9	-25.0[16.7 µM]	C[C@@H]1CN([C@H](C)CO)C(=O)Cc2cc(NC(=O)Nc3ccc4c(c3)OCO4)ccc2O[C@H]1CN(C)Cc1ccc(C(=O)O)cc1
10.1	3.6[16.7 µM]	COc1ccc(NC(=O)Nc2cccc3c2O[C@H](CN(C)Cc2ccccc2)[C@@H](C)CN([C@H](C)CO)C3=O)cc1
-1.1	-1.3[16.7 µM]	CN1CCN(C(=O)C[C@H]2C[C@H]3c4cc(NC(=O)Nc5ccc(C(F)(F)F)cc5)ccc4O[C@H]3[C@H](CO)O2)CC1
16.9	4.7[16.7 µM]	C[C@@H]1CCCCO[C@@H](CN(C)S(=O)(=O)c2ccccc2)[C@H](C)CN([C@@H](C)CO)C(=O)c2cc(N(C)C)ccc2O1
8.0	11.4[16.7 µM]	C[C@@H]1CN([C@@H](C)CO)C(=O)Cc2cc(NS(=O)(=O)c3ccc(F)cc3)ccc2O[C@@H]1CN(C)Cc1ccc(Oc2ccccc2)cc1
6.1	0.2[16.7 µM]	CCO[C@H]1OC(C(=O)N2CCCC2)=C[C@@H](c2ccc(Br)cc2)[C@@H]1CCCO
-13.9	-13.1[16.7 µM]	C[C@@H]1CN([C@@H](C)CO)C(=O)c2cc(C#CCN(C)C)cnc2O[C@H]1CN(C)C(=O)Cc1cccnc1
-9.9	31.2[16.7 µM]	Cc1ccc(S(=O)(=O)Nc2ccc3c(c2)C(=O)N([C@H](C)CO)C[C@H](C)[C@@H](CN(C)S(=O)(=O)c2ccc(Cl)cc2)OCCCC[C@H](C)O3)cc1
-8.7	0.5[16.7 µM]	COc1ccc(NC(=O)N[C@H]2CC[C@H](CCn3cc(-c4ccccc4F)nn3)O[C@H]2CO)cc1
-1.6	-2.0[16.7 µM]	C[C@@H]1CCCCO[C@@H](CN(C)S(=O)(=O)c2ccccc2)[C@H](C)CN([C@@H](C)CO)C(=O)c2cc(NS(=O)(=O)c3cn(C)cn3)ccc2O1
-4.1	-12.9[16.7 µM]	Cn1cnc(S(=O)(=O)N[C@H]2C=C[C@@H](CC(=O)Nc3ccc(-c4ccccc4)cc3)O[C@H]2CO)c1
25.3	13.2[16.7 µM]	Cc1ccc(S(=O)(=O)N(C)C[C@@H]2OCCCC[C@H](C)Oc3ccc(NS(=O)(=O)c4ccccc4)cc3C(=O)N([C@@H](C)CO)C[C@@H]2C)cc1
-4.7	13.0[16.7 µM]	COc1ccc(NC(=O)Nc2ccc3c(c2)CC(=O)N([C@@H](C)CO)C[C@H](C)[C@@H](CN(C)S(=O)(=O)c2cn(C)cn2)O3)cc1
-2.7	-7.6[16.7 µM]	CN1C(=O)c2cc(NC(=O)Nc3ccc(Cl)cc3)ccc2OC[C@H]2O[C@H](CC(=O)O)CC[C@H]21
-3.3	-66.3[16.7 µM]	C[C@H](CO)N1C[C@H](C)[C@@H](CN(C)S(=O)(=O)c2ccc(Cl)cc2)Oc2ccc(NS(=O)(=O)c3cn(C)cn3)cc2C1=O
4.1	25.0[16.7 µM]	C[C@@H]1CCCCO[C@H](CN(C)C(=O)Nc2cccc3ccccc23)[C@H](C)CN([C@H](C)CO)C(=O)c2cc(NS(=O)(=O)c3ccc(F)cc3)ccc2O1
6.4	-9.6[16.7 µM]	C[C@H]1CN([C@@H](C)CO)C(=O)Cc2cc(NS(=O)(=O)c3ccccc3)ccc2O[C@@H]1CN(C)S(=O)(=O)c1ccc(Cl)cc1
0.7	-5.6[16.7 µM]	COc1cccc(S(=O)(=O)N[C@H]2CC[C@@H](CCNC(=O)Cc3ccncc3)O[C@@H]2CO)c1
2.9	4.1[16.7 µM]	C[C@@H]1CCCCO[C@H](CN(C)C(=O)CCC(F)(F)F)[C@@H](C)CN([C@H](C)CO)C(=O)c2cc(NC(=O)Nc3ccccc3)ccc2O1
31.2	29.2[16.7 µM]	C[C@@H]1CCCCO[C@@H](CN(C)Cc2ccc3c(c2)OCO3)[C@H](C)CN([C@@H](C)CO)C(=O)c2cc(NC(=O)Nc3ccc4c(c3)OCO4)ccc2O1
-7.1	9.8[16.7 µM]	C[C@H]1CN([C@@H](C)CO)S(=O)(=O)c2ccc(C#Cc3ccccc3)cc2O[C@@H]1CN(C)C(=O)Cc1ccccn1
11.3	3.8[16.7 µM]	C[C@H]1CN([C@@H](C)CO)C(=O)c2cc(C#CC3(O)CCCC3)cnc2O[C@@H]1CN(C)Cc1cncnc1
-5.4	3.7[16.7 µM]	CNC[C@H]1Oc2ccc(NS(=O)(=O)c3cn(C)cn3)cc2C(=O)N([C@H](C)CO)C[C@@H]1C
1.7	-10.3[16.7 µM]	CC(C)NC(=O)N(C)C[C@H]1OCCCC[C@@H](C)Oc2ccc(NS(=O)(=O)c3ccccc3)cc2C(=O)N([C@H](C)CO)C[C@@H]1C
4.0	-3.3[16.7 µM]	C[C@H](CO)N1C[C@H](C)[C@@H](CN(C)S(=O)(=O)c2cn(C)cn2)Oc2ncc(C#CCN(C)C)cc2C1=O
-5.3	-12.4[16.7 µM]	Cc1ccc(S(=O)(=O)N(C)C[C@@H]2OCCCC[C@H](C)Oc3ccc(NC(=O)NC(C)C)cc3C(=O)N([C@H](C)CO)C[C@@H]2C)cc1
10.5	-17.0[16.7 µM]	CC(C)NC(=O)N(C)C[C@@H]1Oc2c(NC(=O)C3CCCCC3)cccc2C(=O)N([C@@H](C)CO)C[C@@H]1C
-10.6	-16.6[16.7 µM]	CCCN(C)C[C@H]1Oc2cc(-c3cccnc3)ccc2S(=O)(=O)N([C@H](C)CO)C[C@H]1C
5.2	1.2[16.7 µM]	CNC[C@H]1Oc2ccc(N(C)C)cc2C(=O)N([C@H](C)CO)C[C@H]1C

Full records, looked up by structure:
CC(C)NC(=O)N(C)C[C@@H]1Oc2c(NC(=O)C3CCCCC3)cccc2C(=O)N([C@@H](C)CO)C[C@@H]1C is listed with Yeast UUG start: 10.5; Env fusion inh: -17.0[16.7 µM]
C[C@@H]1CCCCO[C@H](CN(C)C(=O)CCC(F)(F)F)[C@@H](C)CN([C@H](C)CO)C(=O)c2cc(NC(=O)Nc3ccccc3)ccc2O1 is listed with Yeast UUG start: 2.9; Env fusion inh: 4.1[16.7 µM]

(list continues)
Yeast UUG start	Env fusion inh	canonical_smiles
-2.2	-12.4[16.7 µM]	COCCNC(=O)C[C@H]1C[C@@H]2c3cc(NC(=O)CC4CC4)ccc3O[C@@H]2[C@H](CO)O1
-8.7	35.6[16.7 µM]	O=C(C[C@H]1C[C@@H]2c3cc(NC(=O)NC4CCCC4)ccc3O[C@@H]2[C@H](CO)O1)NCc1cccc(F)c1
7.4	2.9[16.7 µM]	C[C@@H]1CCCCO[C@@H](CN(C)Cc2ccc3c(c2)OCO3)[C@H](C)CN([C@H](C)CO)C(=O)c2cc(NC(=O)CCC(F)(F)F)ccc2O1
-3.2	1.1[16.7 µM]	CCCC#Cc1cnc2c(c1)C(=O)N([C@H](C)CO)C[C@@H](C)[C@H](CN(C)C(=O)c1cccnc1)O2
5.8	15.5[16.7 µM]	COc1ccc(NC(=O)Nc2ccc3c(c2)CC(=O)N([C@@H](C)CO)C[C@@H](C)[C@H](CN(C)Cc2ccc(-c4ccccc4)cc2)O3)cc1
8.3	-48.3[16.7 µM]	COc1ccc(NC(=O)N(C)C[C@@H]2OCCCC[C@@H](C)Oc3ccc(NC(=O)C4CCCCC4)cc3C(=O)N([C@H](C)CO)C[C@H]2C)cc1
-16.3	3.7[16.7 µM]	O=C(C[C@H]1CC[C@H](NC(=O)Nc2ccc(C(F)(F)F)cc2)[C@H](CO)O1)NCc1ccccn1
-0.5	-4.8[16.7 µM]	C[C@@H]1CN([C@H](C)CO)C(=O)c2cc(NC(=O)c3ccncc3)ccc2O[C@@H](C)CCCCO[C@@H]1CN(C)S(=O)(=O)c1ccc(Cl)cc1
10.0	-62.7[16.7 µM]	Cc1ccc(S(=O)(=O)N(C)C[C@H]2OCCCC[C@@H](C)Oc3ccc(NS(=O)(=O)c4cccs4)cc3C(=O)N([C@H](C)CO)C[C@@H]2C)cc1
-4.1	4.3[16.7 µM]	C[C@@H]1CN([C@@H](C)CO)C(=O)c2cc(-c3cccc(F)c3)cnc2O[C@H]1CN(C)CC1CCOCC1
-14.0	15.3[16.7 µM]	O=C(C[C@H]1C[C@H]2c3cc(NC(=O)Nc4ccc(C(F)(F)F)cc4)ccc3O[C@H]2[C@@H](CO)O1)NCc1ccccn1
-7.1	-26.9[16.7 µM]	O=C(O)C[C@H]1C[C@@H]2c3cc(NC(=O)C4CCOCC4)ccc3O[C@@H]2[C@@H](CO)O1
-20.8	-0.6[16.7 µM]	C[C@H](CO)N1C[C@H](C)[C@H](CN(C)Cc2ccccn2)Oc2cc(-c3cccc(C#N)c3)ccc2S1(=O)=O
10.5	29.1[16.7 µM]	Cc1noc(C)c1NC(=O)Nc1ccc2c(c1)C(=O)N([C@@H](C)CO)C[C@@H](C)[C@H](CN(C)C(=O)Nc1cccc3ccccc13)OCCCC[C@@H](C)O2
-19.0	4.9[16.7 µM]	C[C@@H](O)C#Cc1ccc2c(c1)O[C@@H](CN(C)Cc1ccccn1)[C@@H](C)CN([C@@H](C)CO)S2(=O)=O
13.5	15.6[16.7 µM]	C[C@H]1CN([C@@H](C)CO)C(=O)c2cccc(NC(=O)c3nc4ccccc4s3)c2O[C@H]1CN(C)S(C)(=O)=O
-6.0	-5.0[16.7 µM]	CO[C@@H]1CN(C)C(=O)c2cc(NS(=O)(=O)c3cccc(Cl)c3)ccc2OC[C@H](C)NC[C@H]1C
3.2	-2.2[16.7 µM]	C[C@H]1CCCCO[C@H](CN(C)Cc2ccccc2)[C@@H](C)CN([C@@H](C)CO)C(=O)c2cc(NS(=O)(=O)c3cccs3)ccc2O1

Individual results from the results shown.
C[C@@H]1CCCCO[C@@H](CN(C)S(=O)(=O)c2ccccc2)[C@H](C)CN([C@@H](C)CO)C(=O)c2cc(N(C)C)ccc2O1 @ Yeast UUG start: 16.9
Cn1cnc(S(=O)(=O)N[C@H]2C=C[C@@H](CC(=O)Nc3ccc(-c4ccccc4)cc3)O[C@H]2CO)c1 @ Yeast UUG start: -4.1

These rows are one share of the data; the hit share may differ from the screen's.
